PV pol inh = inhibitors of poliovirus RNA polymerase binding and polymerization; poliovirus polymerase elongation, fluorescence polarization; hits give low values; % elongation, % (compound at 16.7 µg/mL); hit rate 0.66% among 150,000; AID 588519; in the data active = % elongation below about 90%; note: some results filed as inactive read as strong as hits
Target sequence (P03300 1749-2209 limits assumed): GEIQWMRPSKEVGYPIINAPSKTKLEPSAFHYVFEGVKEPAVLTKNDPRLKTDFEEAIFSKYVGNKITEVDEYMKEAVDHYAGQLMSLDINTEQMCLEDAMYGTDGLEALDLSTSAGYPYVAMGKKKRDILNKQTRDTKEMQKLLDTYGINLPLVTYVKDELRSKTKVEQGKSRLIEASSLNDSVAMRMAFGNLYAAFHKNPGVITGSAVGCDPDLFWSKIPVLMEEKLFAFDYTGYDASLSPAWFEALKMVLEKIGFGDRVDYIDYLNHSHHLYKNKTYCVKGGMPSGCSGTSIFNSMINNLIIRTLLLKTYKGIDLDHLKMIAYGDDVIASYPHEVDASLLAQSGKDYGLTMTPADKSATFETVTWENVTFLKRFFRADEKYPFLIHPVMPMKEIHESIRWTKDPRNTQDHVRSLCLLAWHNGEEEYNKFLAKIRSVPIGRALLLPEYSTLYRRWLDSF
Mtb MbtI inh = inhibitors of Mycobacterium tuberculosis siderophore enzyme MbtI; purified MbtI enzyme, fluorescence intensity read-out; inhibition, %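 (about 17 µg/mL by stock and volumes)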; hit rate 0.89% among 100,000; AID 493033;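 active = above 50% in both replicates, above 80% if mildly self-fluorescent; inactive = the rest, strongly fluorescent compounds included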;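 note: 0% = mean of negative and 100% = mean of positive controls; one replicate is shown; some compounds called inactive have numbers as strong as hits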
Mtb MenB inh = inhibitors of Mycobacterium tuberculosis MenB enzyme; P9WNP5; MenB enzyme assay, absorbance read-out; some hits fall short of the stated cut; inhibition, %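 (about 12 µg/mL by stock and volumes)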; hit rate 0.43% among 100,000;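 active = mean of two replicates above 30%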;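 note: 0% = no compound and 100% = wells with inactive enzyme; the first replicate is given; strong numbers were not always called active; inactives centre near -10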
Target sequence (P9WNP5 whole entry, looked up): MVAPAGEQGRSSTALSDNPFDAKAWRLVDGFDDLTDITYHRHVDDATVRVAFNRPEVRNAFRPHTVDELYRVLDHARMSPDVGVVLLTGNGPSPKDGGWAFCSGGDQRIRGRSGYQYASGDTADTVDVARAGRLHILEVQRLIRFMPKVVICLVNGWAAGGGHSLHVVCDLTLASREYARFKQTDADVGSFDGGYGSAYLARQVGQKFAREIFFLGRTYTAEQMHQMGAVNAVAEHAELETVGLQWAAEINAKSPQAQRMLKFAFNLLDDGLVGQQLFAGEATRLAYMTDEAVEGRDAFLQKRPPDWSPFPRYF
PV pol inh intensity = recorded beside PV pol inh, whose call it bears; % elongation; measured here: total intensity read-out; formula for this scale not given here;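 total fluorescence in place of polarization; lower means less elongation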
* = called active by the depositor; . = no result given; & = joins results of further samples. Rows were taken by chance. Share with any hit: about 1.8%.

Short keys: A = PV pol inh; B = PV pol inh intensity; C = Mtb MbtI inh; D = Mtb MenB inh
mol: CN(C)c1cccc(C(=O)OCc2cc(=O)oc3cc(O)ccc23)c1
  A: 99.0	B: 95.0	C: -11.1	D: -4.0

mol: Cc1cc2occ(CC(=O)Oc3ccc4c(c3)OCO4)c2cc1C
  A: 111.0	B: 111.0	C: -2.7	D: -10.9

mol: O=C(CC12CC3CC(CC(C3)C1)C2)N1CCCC1CO (configuration not stated)
  A: 104.0	B: 110.0	C: -15.9	D: -25.4

mol: COc1ccc2nc(C(=O)O)sc2c1
  A: 86.0*	B: 90.0*	C: .	D: 0.0

mol: CCn1c2ccccc2c2cc(NC(=O)CSc3nncn3C)ccc21
  A: 101.0	B: 104.0	C: -2.1	D: .

mol: Cc1c(-c2ccccc2)nc2ccccc2c1C(=O)O
  A: 103.0	B: 102.0	C: -3.4	D: 33.9*

mol: CCOP1(=S)Oc2cc(Cl)ccc2C(C(F)(F)F)(C(F)(F)F)O1 (configuration not stated)
  A: 98.0	B: 92.0	C: -4.9	D: -49.1

mol: CC1=[N+]([O-])C(C)(C)CC(C)c2ccccc21 (configuration not stated)
  A: 103.0	B: 101.0	C: 2.8	D: -22.0

mol: CS(=O)(=O)N(CC(=O)N1CCC(C(N)=O)CC1)c1cccc(C(F)(F)F)c1
  A: 103.0	B: 103.0	C: -8.2	D: 0.2

mol: Cc1ccccc1Nc1nc(N)nc(CSc2nc3ccccc3c(=O)n2C)n1
  A: 109.0	B: 107.0	C: 2.1	D: 6.1

mol: NNC(=O)CNC(c1ccccc1)c1cc(Br)ccc1N (configuration not stated)
  A: 105.0	B: 102.0	C: -1.8	D: -4.1

mol: CC(C)(C)OC(=O)N1CCC(C(=O)Nc2ccc(OC(F)(F)F)cc2)CC1
  A: 103.0	B: 106.0	C: 3.0	D: -31.5

mol: COc1ccc(C2=NOC(C(=O)N(C)Cc3ccccc3)C2)cc1OC (configuration not stated)
  A: 100.0	B: 101.0	C: 4.6	D: 5.0

mol: COc1ccc(C2(C(=O)N3CCCC3)CCCC2)cc1OC
  A: 105.0	B: 98.0	C: -4.7	D: -46.8

mol: CN(Cc1cccs1)C(=O)c1ccc2c(c1)OCO2
  A: 101.0	B: 106.0	C: -11.3	D: -37.8

mol: CCOC(=O)Cn1cnc2c(sc3nc(C)cc(C)c32)c1=O
  A: 103.0	B: 104.0	C: 11.8	D: -12.9

mol: COc1ccc(Cc2nnc(C(=O)N3CCN(c4ccc(C)cc4C)CC3)o2)cc1OC
  A: 102.0	B: 102.0	C: -0.7	D: 1.1

mol: Cc1ccc(OCCN2CCN(c3nc(NCc4ccccc4)c4ccccc4n3)CC2)cc1
  A: 100.0	B: 104.0	C: -76.5	D: -31.6

mol: Nc1nc(SCC(=O)NC2CCCCC2)n[nH]1
  A: 104.0	B: 108.0	C: -7.6	D: -42.5

mol: Nc1ccc(C(=O)OCC(=O)c2ccc(Br)cc2)c(O)c1
  A: 105.0	B: 107.0	C: .	D: -37.9

mol: CC(OC(=O)C1CCN(S(=O)(=O)c2ccc3c(c2)OCCO3)CC1)C(=O)Nc1ncc(Cl)cc1Cl (configuration not stated)
  A: 102.0	B: 103.0	C: -3.4	D: -24.4

mol: O=C1NC(=S)NC(=O)C1=Cc1ccco1
  A: 101.0	B: 103.0	C: 52.1	D: -33.5

mol: O=C1c2ccccc2C(O)(c2ccccc2)N1CCc1ccccc1 (configuration not stated)
  A: 102.0	B: 104.0	C: -13.1	D: 10.5

mol: CC(C)CN(CC(C)C)C(=O)c1ccc2c(c1)NC(=O)/C(=C/c1ccccc1)S2
  A: 104.0	B: 102.0	C: 2.8	D: -34.4

mol: CN(C)/C=C1\CCCCN2C(=O)/C(=C\c3ccc(Cl)cc3)N=C12
  A: 124.0	B: 205.0	C: 12.2	D: -28.1

mol: N/C(=N\c1nc2c(c(=O)[nH]1)CCC2)Nc1cccc(Cl)c1
  A: 104.0	B: 103.0	C: 4.8	D: -43.6

mol: OCc1ccc(-c2nn(Cc3ccccc3)c3ccccc23)o1
  A: 97.0&101.0	B: 103.0&101.0	C: -139.1	D: 4.1

mol: CC(C)N1CSC(=S)N(Cc2ccccc2)C1
  A: 101.0	B: 106.0	C: 30.8	D: -60.4

mol: CCn1c(-c2cccnc2)n[nH]c1=S
  A: 101.0	B: 104.0	C: 44.4	D: -12.6

mol: CCOc1ccc2[nH]c3nc(SCC4CCCO4)nnc3c2c1 (configuration not stated)
  A: 101.0	B: 101.0	C: 10.6	D: -49.9

mol: Cc1cc(-c2nnc(SCC(=O)c3cc4ccccc4oc3=O)o2)no1
  A: 101.0	B: 102.0	C: 2.8	D: 22.6

mol: Cc1ccc(C2C3=C(COC3=O)Nc3c2c(=O)n(C)c(=O)n3C)cc1 (configuration not stated)
  A: .	B: .	C: 101.9	D: -0.9

mol: CCCCNC(=O)c1cn(CC)c2ccc(S(=O)(=O)N3CCCC3)cc2c1=O
  A: 99.0	B: 104.0	C: 0.3	D: 11.5

mol: Cc1ccc2c(=O)c(C(=O)c3ccccc3)c[nH]c2n1
  A: 100.0	B: 145.0	C: -13.3	D: -16.1

mol: COc1ccc2oc(=O)cc(CN(C)c3c(C)cccc3C)c2c1
  A: 101.0	B: 103.0	C: 11.2	D: -14.1

mol: Cc1ccc(S(=O)(=O)Nc2cccc3ccc(-n4nc(C)cc4C)nc23)cc1
  A: 99.0	B: 104.0	C: -17.2	D: 10.5

mol: CC1CN(C(=O)Nc2ccc3snnc3c2)c2ccccc21 (configuration not stated)
  A: 101.0	B: 104.0	C: -0.4	D: -117.0

mol: Cc1ccc(Cn2cc3c(n2)-c2c(oc(C(=O)NCCCN4CCN(c5ccc(F)cc5)CC4)c2C)CC3)cc1
  A: 101.0	B: 101.0	C: -1.2	D: -26.5

mol: Cc1ccc2nc(SCC(=O)N(C)C3CCCCC3)c(C#N)cc2c1
  A: 99.0	B: 105.0	C: -1.2	D: -19.4

mol: CCC(=O)N1c2ccc(S(=O)(=O)NC(C)C)cc2CC1C (configuration not stated)
  A: 100.0	B: 101.0	C: -19.5	D: -1.0

mol: Cc1onc(-c2ccccc2)c1C(=O)NCCc1ccccc1
  A: 101.0	B: 101.0	C: 43.7	D: 9.6

mol: CC(Oc1ccccc1)C(=O)N1CCCC1 (configuration not stated)
  A: 99.0	B: 102.0	C: -3.6	D: 8.3

mol: COc1cc2c(cc1OC)CN(C(=O)CCC(=O)O)CC2
  A: 106.0	B: 108.0	C: -5.5	D: -69.6

mol: CCOC(=O)C1CCCN(C(=O)COc2ccc3oc4ccccc4c3c2)C1 (configuration not stated)
  A: 97.0	B: 104.0	C: -9.4	D: -25.0

mol: Nc1c(N(C(=O)C2CCCO2)C2CCCC2)c(=O)[nH]c(=O)n1Cc1ccccc1 (configuration not stated)
  A: 103.0	B: 111.0	C: -6.3	D: -12.2

mol: O=C(CC1SCCNC1=O)Nc1ccc(Cl)c(Cl)c1 (configuration not stated)
  A: 111.0	B: 110.0	C: .	D: -24.8

mol: COC(=O)c1ccc(Nc2nc3ccc(C)cc3n3cnnc23)cc1
  A: 102.0	B: 119.0	C: 3.4	D: 4.4

mol: c1ccc(CSC23CC4CC(CC(C4)C2)C3)cc1
  A: 104.0	B: 97.0	C: -10.4	D: -15.1

mol: Cc1cc(/C=C2/C(=N)N3C=CSC3=NC2=O)c(C)n1-c1ccccc1
  A: 101.0	B: 98.0	C: 4.7	D: -28.9

mol: CCOC(=O)Cc1csc(NC(=O)CSc2nc(N)c3c4c(sc3n2)CCCC4)n1
  A: 101.0	B: 95.0	C: -5.2	D: -30.7

mol: O=C(c1ccc(-n2nc(C(F)(F)F)c3c2-c2ccoc2CC3)cc1)N1CCc2ccccc21
  A: 99.0	B: 103.0	C: -3.5	D: -13.1

mol: O=C(Nc1ccc(Cl)cn1)c1cccc(S(=O)(=O)N2CCCCCC2)c1
  A: 103.0	B: 107.0	C: -3.2	D: -2.3

mol: O=C(c1ccccc1)C1CCN(C(=O)c2ccco2)CC1
  A: 102.0	B: 113.0	C: -6.6	D: -9.3

mol: Cc1cc(/C=C(/C#N)c2ccc(F)cc2)c(C)n1Cc1ccccc1
  A: 100.0	B: 100.0	C: -0.7	D: -19.6

mol: Fc1ccc2nc(Nc3nnc(-c4ccco4)o3)sc2c1
  A: 100.0	B: 102.0	C: -12.8	D: -4.7

mol: CC1(C)CN(C(=S)Nc2cccc(Cl)c2)C1=O
  A: 103.0	B: 111.0	C: 0.6	D: -27.8

mol: Cc1ccc2oc(=O)c3cnn(CC(=O)N4CCCCC4)c3c2c1
  A: 102.0	B: 101.0	C: -4.8	D: -0.7

mol: Cc1c(Cl)cccc1NCC(=O)N1CC2(C)CC1CC(C)(C)C2 (configuration not stated)
  A: 102.0	B: 106.0	C: -6.8	D: .

mol: Cc1ccccc1N(C)C(=O)Cn1ncc2c1-c1ccccc1OC2
  A: 102.0	B: 96.0	C: -2.1	D: -20.1

mol: O=C(OCC1COc2ccccc2O1)c1ccc(Br)cc1 (configuration not stated)
  A: 104.0	B: 103.0	C: -8.2	D: .

Record cards, from the list above. Values in the order: PV pol inh	PV pol inh intensity	Mtb MbtI inh	Mtb MenB inh
Cc1cc(/C=C2/C(=N)N3C=CSC3=NC2=O)c(C)n1-c1ccccc1 in the list: 101.0	98.0	4.7	-28.9
COC(=O)c1ccc(Nc2nc3ccc(C)cc3n3cnnc23)cc1 in the list: 102.0	119.0	3.4	4.4
Cc1ccccc1N(C)C(=O)Cn1ncc2c1-c1ccccc1OC2 in the list: 102.0	96.0	-2.1	-20.1
CC1(C)CN(C(=S)Nc2cccc(Cl)c2)C1=O in the list: 103.0	111.0	0.6	-27.8
Cc1c(Cl)cccc1NCC(=O)N1CC2(C)CC1CC(C)(C)C2 (configuration not stated) in the list: 102.0	106.0	-6.8	.

More records:
Short keys: A = PV pol inh; B = PV pol inh intensity; C = Mtb MbtI inh; D = Mtb MenB inh
mol: Cc1c(CCC(=O)O)c(=O)oc2cc3oc4c(c3cc12)CCCC4
  A: 101.0	B: 106.0	C: -2.4	D: -7.8

mol: CCOc1ccc2nc(/N=C/c3ccccc3O)sc2c1
  A: 102.0	B: 103.0	C: .	D: -3.8

mol: COc1ccc(C(=O)OCC(=O)c2cc(OC)ccc2OC)cc1
  A: 100.0	B: 99.0	C: 41.2	D: -38.8

mol: Cc1cc(OCCCC(=O)NC2=NCCS2)ccc1Cl
  A: 106.0	B: 110.0	C: -21.6	D: -6.7

mol: CC(C)CC(NC(=O)C1CCCCC1)C(=O)NC1CCC(C)CC1 (configuration not stated)
  A: 102.0	B: 99.0	C: -0.2	D: -2.2

mol: COC(=O)CSc1nsc(SCC(=O)OC)c1C#N
  A: 101.0	B: 103.0	C: .	D: -1.3

mol: O=C1CSC(=O)N1CC(O)COc1ccc(OCC(O)CN2C(=O)CSC2=O)cc1 (configuration not stated)
  A: 101.0	B: 102.0	C: -13.7	D: -5.3

mol: Cc1ccccc1NC(=O)Nc1sc(=S)n(C)c1C
  A: 102.0	B: 103.0	C: 0.2	D: -6.8

mol: Cc1ccc(C(=O)N(C(=O)c2ccc(C)cc2)c2cc(C)on2)cc1
  A: 105.0	B: 94.0	C: -18.9	D: -34.3

mol: N/C(=N/c1nc2ccccc2o1)NC(=O)C(Cc1ccccc1)N1C(=O)c2ccccc2C1=O (configuration not stated)
  A: 102.0	B: 104.0	C: 1.5	D: -24.2

mol: COC(=O)c1c(N)sc(Cc2ccccc2)c1C
  A: 99.0	B: 102.0	C: 9.1	D: -34.3

mol: COc1cc(C2NCCS2)cc(OC)c1OC (configuration not stated)
  A: 102.0	B: 105.0	C: 0.5	D: -74.6

mol: CCS(=O)(=O)Nc1ccc(C(=O)N(C)Cc2ccccc2)cc1
  A: 99.0	B: 102.0	C: -7.3	D: 7.0

mol: O=C(C1CCC1)N(c1nccs1)C1CCCCC1
  A: 102.0	B: 105.0	C: -2.8	D: -44.0

mol: O=C1C=CC(=O)N1c1ccc(-c2cnc(-c3ccc(N4C(=O)C=CC4=O)cc3)nc2)cc1
  A: 99.0	B: 94.0	C: 74.8	D: -30.0

mol: CCOc1ccc(S(=O)(=O)NCc2ccncc2)cc1C(C)C
  A: 101.0	B: 102.0	C: -4.5	D: -15.0

mol: O=C(N1CCCC1)N1c2ccccc2Sc2ccccc21
  A: 102.0	B: 101.0	C: 0.4	D: 9.0

mol: CCOC(=O)C1C2CCC(C2)N1S(C)(=O)=O (configuration not stated)
  A: 106.0	B: 104.0	C: -11.9	D: -9.3

mol: Clc1c(-c2nnc(-c3ccc(N4CCOCC4)cc3)o2)sc2ccccc12
  A: 103.0	B: 104.0	C: -0.6	D: 14.6

mol: CN(C)C(C#N)c1cn(C)c2ccccc12 (configuration not stated)
  A: 102.0	B: 102.0	C: -2.5	D: -9.6

mol: N#Cc1ccc(N2CCCCC2)cc1
  A: 99.0	B: 101.0	C: -114.2	D: 11.0

mol: OC1C(c2ccccc2)=NNC1c1ccccc1 (configuration not stated)
  A: 99.0	B: 98.0	C: -126.8	D: -1.9

mol: O=C(Nc1ccc2c(c1)OCCO2)[C@@H](c1ccccc1)N1Cc2ccccc2C1=O
  A: 98.0	B: 100.0	C: 5.7	D: -24.4

mol: O=C(NC1CCCC1)C1C2C=CC(C2)C1C(=O)N1CCOCC1 (configuration not stated)
  A: 102.0	B: 103.0	C: -2.5	D: 1.2

mol: COc1cc(Cl)c(NS(=O)(=O)c2cc(-c3onc(C)c3C)ccc2OC)c(OC)c1
  A: 102.0	B: 101.0	C: 10.7	D: -20.0

mol: Nc1ccc(Sc2nnnn2-c2ccccc2)c(Cl)c1
  A: 101.0	B: 101.0	C: -6.4	D: -51.7

mol: Cc1ccc2c(c1)c1nc3ccccc3nc1n2CC(=O)OC(C)C
  A: 103.0	B: 97.0	C: -0.6	D: -8.3

Bioassay records from PubChem.
